# From PubChem BioAssay
# T cruzi repl: blocks replication of Trypanosoma cruzi. 1.4% of 300,000 active. inhibition, % (concentration not given with the values). T. cruzi beta-gal in NIH3T3, luminescence, 90 h;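 active means mean inhibition across valid replicates above about 55%, limit read from the data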;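 further: signal also drops with host cell toxicity which is not excluded here; 0% = plate median of DMSO wells and 100% = zero luminescence signal; higher percent means less beta-gal luminescence so fewer parasites; stock transfer was 50 nL into about 50 µL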
# ALR H2O2 inh: human ALR oxidase inhibition via reduced H2O2. P55789. purified ALR, DTT oxidation, H2O2 HRP-luminol luminescence. inhibition, % (concentration not given with the values). 3.8% of 290,000 active. AID 485317;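 active means mean and each replicate at 75% or more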;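 further: stock transfer was 7.5 nL into about 7.5 µL; 0% = neutral wells and 100% = wells with inactivated enzyme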
# Target sequence (P55789 whole entry, looked up): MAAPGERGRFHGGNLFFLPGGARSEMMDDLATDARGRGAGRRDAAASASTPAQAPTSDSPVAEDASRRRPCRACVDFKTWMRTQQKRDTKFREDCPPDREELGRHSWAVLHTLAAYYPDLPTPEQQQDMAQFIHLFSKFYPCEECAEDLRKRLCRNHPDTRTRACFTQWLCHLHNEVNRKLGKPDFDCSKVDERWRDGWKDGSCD
# Beta2AR agonist: activates human beta-2 adrenergic receptor causing internalization; P07550; Am2.2-beta2AR cells, FAP receptor internalization, flow cytometry; reference of the scale not given here; response, % (concentration not given with the values); 0.43% of 340,000 active; AID 504454;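 active means response above a set limit, near 3 SD of response in nonfluorescent compounds, cut at about 42% in these data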;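 further: stock transfer was 100 nL into about 11 µL; a reference agonist was the positive control; negative values mostly stem from fluorescent compounds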
# Target sequence (P07550 whole entry, looked up): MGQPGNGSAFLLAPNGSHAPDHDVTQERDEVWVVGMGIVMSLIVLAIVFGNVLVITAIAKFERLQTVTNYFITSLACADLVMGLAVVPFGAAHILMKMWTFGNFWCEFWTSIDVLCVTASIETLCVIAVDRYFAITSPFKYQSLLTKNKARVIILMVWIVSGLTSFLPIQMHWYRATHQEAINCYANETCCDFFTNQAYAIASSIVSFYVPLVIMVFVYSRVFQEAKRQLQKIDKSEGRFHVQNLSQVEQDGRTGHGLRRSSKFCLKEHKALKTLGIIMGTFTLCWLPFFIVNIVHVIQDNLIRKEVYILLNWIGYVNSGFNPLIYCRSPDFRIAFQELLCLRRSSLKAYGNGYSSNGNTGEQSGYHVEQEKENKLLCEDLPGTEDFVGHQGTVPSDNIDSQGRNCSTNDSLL
# A1 inh: inhibitors of the anti-apoptotic protein A1, read as caspase activation; MEF A1-2A-BIM cells, Caspase-Glo 3/7 luminescence, 3 h; percent of clofoctol response, vehicle zero; caspase activation, % (concentration not given with the values); 0.066% of 330,000 active;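 active means over half of replicate activation scores above 10%, or exactly half above 10 with the replicate mean above 10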;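 further: wells of about 30 µL received 50 nL stock; many hits fall short of the cut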
# LANA-H2A inh: blocks KSHV LANA binding to histone H2A/H2B. AID 2629. inhibition, % (concentration not given with the values). Q9QR71. 0.6% of 320,000 active. cell-free LANA-H2A/H2B peptide, fluorescence polarization; in the data active means inhibition mostly above about 10%, no sharp cut-off; inactive means mostly below about 6.7%;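 further: stock transfer was 7.5 nL into about 10 µL; 0% = median of vehicle wells and 100% = median of positive control wells; one replicate is shown; the record names a cut of 25% in any replicate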
# rRNA inh HTS: inhibitors of bacterial rRNA selective over humanized ribosomes; E. coli WT GFP vs humanized-ribosome RFP mutants, fluorescence, 24 h; hits give low values; DMSO median 0, no signal -100; GFP signal change (wild-type ribosome), % (test concentration not listed); 1.6% of 350,000 active; AID 720706;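 active means significant combined selectivity score with lowered wild-type GFP, culture density cut under 30%, mutant RFP and density less affected; inactive means any of these conditions unmet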; further: one replicate is shown; some compounds called inactive have numbers as strong as hits
# Calb FLC: affects C. albicans growth with fluconazole; C. albicans CaCi-2 (fluconazole-resistant clinical isolate) + fluconazole, Alamar Blue growth, 48 h; growth inhibition, % (concentration not given with the values); 0.57% of 300,000 active; AID 1979;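 active means most replicates above 75%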;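 further: all wells also contain fluconazole at 8 µg/ml as a sub-toxic cotreatment; 0% = median of DMSO wells and 100% = median of geldanamycin control wells; wells of about 8 µL received 7.5 nL stock; the first replicate is given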
# Beta apoptosis: beta cell apoptosis inhibition. protection from apoptosis, % (test concentration not listed). 0.8% of 300,000 active. INS-1E cytokine-induced death, ATP luminescence, 48 h; percent of positive-control rescue, neutral wells zero. AID 435005;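 active means all replicates at 75% or more, or half of them and the mean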;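 further: 0% = cytokine-treated negative control wells and 100% = positive control rescue; higher means more ATP so stronger rescue from cytokine killing; wells of about 40 µL received 100 nL stock; the first replicate is given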
# rRNA inh HTS OD600: further read-out of rRNA inh HTS, marked with its call; OD600 change, %; measured here: OD600 growth;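 optical density of the mix in the first replicate; 0 = DMSO median and -100 = no signal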
# rRNA inh HTS RFP: recorded beside rRNA inh HTS, whose call it bears; RFP signal change, %; measured here: RFP humanized mutant strains;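 first replicate; 0 = DMSO median and -100 = no signal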
# Numbers without * were called inactive; i = inactive; / = no result given. This is a subset, so the mix of outcomes need not match the whole.
Compound	rRNA inh HTS	Calb FLC	Beta2AR agonist	LANA-H2A inh	Beta apoptosis	rRNA inh HTS OD600	rRNA inh HTS RFP	A1 inh	T cruzi repl	ALR H2O2 inh
O=C(NN=Cc1cccc([N+](=O)[O-])c1)c1cc(-c2cccnc2)nc2ccccc12	11.0	/	0.0	-2.3	-3.0	15.8	-1.2	-0.4	/	44.6
O=C(NCCc1ccncc1)c1ccccc1F	/	-5.9	4.1	-3.6	-3.0	/	/	0.3	1.0	-3.4
Cc1ccc(C(=O)CSc2nnc(COc3cccc4cccnc34)o2)cc1	-31.6*	1.6	-4.6	-3.5	3.3	-9.9*	-1.2*	-0.6	12.5	13.8
O=C(N/N=C/c1ccc(-c2cccc(C(F)(F)F)c2)o1)c1cccc(F)c1	/	-16.4	5.6	-0.4	5.2	/	/	-0.6	68.8*	-6.9
O=C(NCc1ccc(F)cc1)c1ccc(N2CCOCC2)c([N+](=O)[O-])c1	10.3	6.2	0.1	1.3	-7.1	6.2	0.6	2.0	-9.2	-2.6
CCOC(=O)C1(Cc2cccc(OC)c2)CCCN(C(=O)c2ccc(OC)o2)C1 (stereo unspecified)	0.3	2.7	2.7	-1.3	-0.7	2.4	2.6	0.0	11.5	2.9
O=C(CSCC(=O)NC1CC1)Nc1ccccc1	/	-2.7	-1.0	-0.9	-1.7	/	/	0.5	-7.9	/
CC1CN=C(N(C(=O)Nc2ccccc2)C(C)C)S1 (stereo unspecified)	/	-3.1	2.1	0.2	-4.9	/	/	0.6	-8.4	-5.5
Cc1ccc(SCc2ccc(C(=O)NCc3ccncc3)cc2)cc1	-3.5	-16.0	12.9	-1.9	-1.3	-11.1	-2.9	-0.7	1.1	-4.9
Cc1cc(-c2c(C)[nH]n(-c3ccccc3)c2=O)n(-c2ccccc2)n1	/	15.1	5.4	0.7	4.5	/	/	1.8	-9.9	70.2

# Whole records, quoted from the list:
# O=C(CSCC(=O)NC1CC1)Nc1ccccc1 is listed as rRNA inh HTS = /; Calb FLC = -2.7; Beta2AR agonist = -1.0; LANA-H2A inh = -0.9; Beta apoptosis = -1.7; rRNA inh HTS OD600 = /; rRNA inh HTS RFP = /; A1 inh = 0.5; T cruzi repl = -7.9; ALR H2O2 inh = /
# O=C(NCCc1ccncc1)c1ccccc1F is listed as rRNA inh HTS = /; Calb FLC = -5.9; Beta2AR agonist = 4.1; LANA-H2A inh = -3.6; Beta apoptosis = -3.0; rRNA inh HTS OD600 = /; rRNA inh HTS RFP = /; A1 inh = 0.3; T cruzi repl = 1.0; ALR H2O2 inh = -3.4

# The list goes on.
Compound	rRNA inh HTS	Calb FLC	Beta2AR agonist	LANA-H2A inh	Beta apoptosis	rRNA inh HTS OD600	rRNA inh HTS RFP	A1 inh	T cruzi repl	ALR H2O2 inh
COc1ccc(CCNC2CC(=O)N(CCc3ccccc3)C2=O)cc1 (stereo unspecified)	/	-11.4	11.2	-3.6	-4.5	/	/	-0.3	-6.5	/
O=C(NCC(c1ccc(F)cc1)N1CCOCC1)c1ccc(-c2ccccc2)cc1 (stereo unspecified)	9.3	/	3.9	4.7	-4.3	-0.3	6.3	-1.4	/	-8.6
COc1cc(C)c(C)cc1S(=O)(=O)NC1CC(C)(C)NC(C)(C)C1	-5.3	-1.1	-4.0	-0.4	1.0	0.8	-0.2	1.5	-1.3	3.1
COc1ccc(CC(=O)OCC(=O)Nc2cccc(Br)c2)cc1	3.6	5.6	7.0	-4.7	-2.6	-0.4	-4.2	0.7	12.5	-3.0
Cc1nc(C)c2c(c1C(F)(F)F)-c1ccccc1C2(F)F	/	3.1	5.8	11.7*	3.8	/	/	-0.9	-1.3	-14.2
Cc1nc2ccc(S(=O)(=O)NCC(=O)O)cc2s1	/	7.7	2.9	-4.2	1.1	/	/	0.1	1.1	-1.9
NC(=S)NNC(=O)Nc1cccc(Cl)c1	5.3	4.6	-2.1	-2.3	-1.4	-6.8	-1.2	0.8	-4.5	23.2
CCOc1ccc(/C=N/n2c(-c3ccccc3)n[nH]c2=S)cc1	-0.9	-2.5	4.5	2.2	0.2	5.0	3.0	0.4	7.9	-3.2
CN(CC(=O)Nc1ccc(Cl)c(C(F)(F)F)c1)C(=O)CCN1C(=O)C2CC=CCC2C1=O (stereo unspecified)	-7.6	-2.2	4.0	1.4	-8.7	-22.2	-0.7	0.1	-0.7	-11.5
CC(=O)NC(Cc1ccc(C)cc1)C(=O)NC1CCN(c2ncccc2[N+](=O)[O-])CC1 (stereo unspecified)	-3.2	-0.6	1.3	1.7	0.2	1.8	-7.1	0.0	10.9	-0.6
COc1ccc(N(CC(=O)Nc2cc([N+](=O)[O-])ccc2C)S(C)(=O)=O)cc1OC	12.5	3.8	4.1	-15.2	-1.4	6.9	1.6	-2.2	6.9	-11.4
Cc1c(/N=C(\[O-])Nc2ccc(Br)cc2)sn[n+]1C	3.9	-14.8	-9.4	3.1	7.7	2.9	-2.1	-4.4	0.7	-2.8
Fc1ccccc1/C=N/Nc1ncnc2ccccc12	-0.7	-7.8	3.3	3.6	3.9	5.8	6.3	0.5	-21.6	15.4
O=C(NCCc1c[nH]c2ccccc12)C(=O)NCC1OCCN1S(=O)(=O)c1ccc(Cl)cc1 (stereo unspecified)	/	4.2	4.3	-3.9	8.3	/	/	0.5	-19.2	-6.6
CC(C)(C)SCCNC(=O)c1ccc(Cl)c([N+](=O)[O-])c1	/	-23.3	-24.1	0.2	-4.1	/	/	0.6	-7.5	-5.9
CCN(c1ccc(OC)cc1)S(=O)(=O)c1nnc(NC(=O)COc2ccc(F)cc2)s1	-4.0	4.1	0.6	-1.6	8.7	1.7	3.5	0.3	7.3	-7.5
Cc1ccccc1C(=O)N1CCC(C(=O)N2CCN(S(=O)(=O)c3ccccc3F)CC2)CC1	-6.1	-4.8	1.9	-4.0	-2.3	-1.5	-1.6	-0.3	-11.8	0.4
CCCN(C(=O)CSCC(=O)Nc1cccc(C)c1)c1c(N)n(Cc2ccccc2)c(=O)[nH]c1=O	8.1	10.4	8.7	-0.2	-2.0	10.1	2.6	-0.4	4.9	-7.3
Cc1cc(C)c2nc(N3C(=O)C(O)=C(C(=O)c4ccco4)C3c3ccc(O)cc3)sc2c1 (stereo unspecified)	-7.7	/	-1.4	/	-8.1	-16.6	9.4	-1.2	/	99.2*
O=C(Nc1ccsc1C(=O)NC1CCCCC1)c1ccc(F)cc1	/	4.8	-4.9	-3.9	7.0	/	/	-0.1	12.7	11.7
O=C(c1ccc(S(=O)(=O)N2CCCC2)cc1)N1CCC(CN2C(=O)c3cccc4cccc(c34)C2=O)CC1	-3.2	14.0	1.1	4.0	3.2	-6.2	1.7	-0.9	52.9	-4.1
O=C(CCS(=O)(=O)c1ccccc1)NCCS(=O)(=O)c1ccccc1	28.0	-7.4	-9.5	-2.1	-2.1	23.1	2.8	0.4	-11.5	-3.0
C/C=C(/C)C(=O)O[C@@H]1c2c(ccc3ccc(=O)oc23)OC(C)(C)[C@@H]1OC(C)=O	-3.2	/	6.6	3.5	2.2	-11.4	0.6	0.0	/	4.5
COc1cccc(C2Nc3ccccc3C(=O)N2c2ccc(F)cc2)c1O (stereo unspecified)	1.3	-0.6	13.2	2.9	-6.7	5.6	-1.2	-6.4	-9.9	74.7
O=C(NCCCN1CCc2ccccc2C1)C1CCN(S(=O)(=O)N2CCCC2)CC1	2.4	-12.0	3.5	-0.9	-8.5	-0.6	-1.4	0.4	-1.7	-2.7
Cn1c(=O)oc2cc(S(=O)(=O)Nc3ccc(O)cc3)ccc21	19.0	-9.7	6.4	-3.8	-4.5	10.0	2.2	-0.2	-13.2	99.5*
COc1cc(/C=C/C(=O)OCC(=O)NC(=O)NC(C)(C)C)ccc1OCC#N	1.3	-5.7	-3.7	1.9	-0.6	10.9	0.7	0.6	-5.3	-8.0
CCn1c(=O)cc(SCC(=O)N(C)Cc2ccccc2)c2ccccc21	/	8.7	-11.3	-0.6	0.1	/	/	0.7	5.7	5.5
COC(=O)c1ccc(C(c2c(N)n(CC(C)C)c(=O)[nH]c2=O)N2CCN(c3ccccc3)CC2)cc1 (stereo unspecified)	/	-3.0	1.5	-1.5	-10.5	/	/	0.3	2.5	-6.4
NC(=O)CSc1nnnn1-c1ccccc1Cl	4.5	-12.3	-2.5	0.1	-3.6	-12.8	-3.4	-0.3	-7.4	-0.9
COc1ccc(Br)cc1CNC(=O)c1ccc2c(c1)N(C)CCS2	2.0	-8.0	-5.9	-0.6	-4.1	-19.9	0.2	-0.7	13.3	4.3
COc1ccccc1CNC(=O)c1cc2c(s1)CS(=O)(=O)C2	2.2	0.8	-1.3	1.3	1.1	-0.7	-1.3	0.9	5.0	-7.8
CCN(C(=O)CSc1nnc(-c2ccccc2)o1)c1c(N)n(Cc2ccccc2)c(=O)[nH]c1=O	13.7	-4.8	-1.9	i	-2.9	-5.6	-2.1	-0.2	-11.7	-7.5
Cc1cc(C)c2c(-n3cccc3)c(NC(=O)OCc3ccccc3)sc2n1	/	1.6	3.0	1.8	-3.7	/	/	-0.4	/	-18.2
C=CCN(C(=O)CSC1=NC(=O)CN1C(C)=O)c1nc(C)c(-c2ccccc2)s1	6.9	29.0	12.2	2.8	-14.6	-2.1	5.6	1.3	70.2*	-3.7
CC(C)(C)NC(=O)NC(=O)COC(=O)C1c2ccccc2Oc2ccccc21	-53.2	-11.6	7.3	-1.0	/	-78.0	-14.8	-0.1	-7.2	1.6
CCOC(=O)CN1CC23C=CC(O2)C(C(=O)Nc2ccc(F)cc2)C3C1=O (stereo unspecified)	/	0.6	3.0	2.8	-0.6	/	/	0.5	12.8	-12.9
C=C(C)COc1ccc(C2NC(=O)c3ccccc3O2)cc1OCC (stereo unspecified)	14.3	6.8	-1.0	-0.6	1.4	6.2	9.4	0.7	4.7	1.0
CCCCC1CCc2[nH]nc(C(=O)O)c2C1 (stereo unspecified)	-3.6	/	0.1	2.1	1.4	-11.5	-1.8	1.0	/	-2.4
O=C(Cn1nnc2ccccc2c1=O)NCc1ccc(Cl)cc1	3.1	1.0	3.8	2.4	-1.6	-1.1	-7.3	0.3	-5.1	-8.8
O=C(NCc1ccccc1)N1CCN(CCO)CC1	0.6	-2.0	2.5	-5.4	-9.8	5.5	0.6	0.8	-9.3	/
Cc1ccc(CNC(=O)Cn2cnc3c(NC(=O)OCc4ccccc4)ncnc32)o1	11.2	/	-9.3	0.5	-1.7	8.4	1.2	-0.2	/	2.9
COc1cc(/C=N/NC(=O)c2ccccn2)cc2c1OCO2	10.7	2.5	-2.9	2.2	-3.7	-1.8	3.7	-3.0	-1.8	-2.8
CCc1ccc2[nH]c(=O)c(C(c3nnnn3Cc3ccccc3)N3CCOCC3)cc2c1 (stereo unspecified)	/	3.2	-4.9	1.0	-0.1	/	/	1.0	1.7	4.6
CCn1ncc2c(OCc3ccc(C#N)cc3)cc(C)nc21	/	-7.6	8.0	-1.4	0.8	/	/	-0.5	-4.3	-15.9
CC(=O)c1cc(CN2CCN(Cc3ccccc3)C(CCO)C2)cs1 (stereo unspecified)	27.2	-23.1	3.7	5.9	-6.2	13.6	-0.5	0.3	30.8	28.2
COC(=O)c1c(NC(=O)c2cccc(N3C(=O)CCC3=O)c2)sc2c1CCN(C(C)=O)C2	-11.9	9.5	9.4	-8.4	-0.7	-11.6	-2.5	0.4	0.7	-1.1
